Screening results as filed in PubChem BioAssay.
Sa ugtP lethal = compounds lethal to S. aureus RN4220 ugtP deletion mutant; OD600 growth, 16 h; some inactives read as strong as hits; growth inhibition, % (concentration not given with the values); 0.54% of 330,000 active;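 active = z-score under -3 and OD600 up to 0.15 on both plates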;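 also: plate controls were untreated wells for no effect and antibiotic for full effect; wells of about 80 µL received 100 nL stock; the first replicate is given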
Sa RN4220 lethal = S. aureus RN4220 growth inhibition; OD600, 16 h; inhibition, % (concentration not given with the values); 0.33% of 330,000 active; AID 1259311;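 active = z-score of -3 or lower and OD600 up to 0.18 on both plates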;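 also: plate controls were untreated cells for no effect and reference antibiotic for full effect; stock transfer was 100 nL into about 80 µL; one replicate is shown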
Autofluor counter = flagged as autofluorescent in microsphere protease counterscreen; compound autofluorescence counterscreen, microsphere flow cytometry; stronger effect = higher value; fluorescence intensity (test concentration not listed); 3.1% of 360,000 active; AID 624483;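 active = at least 3 SD above the mean of all compounds, about 16000 in these data; inconclusive = too few beads counted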;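 also: 100 nL of 1 mM stock went into each well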
PrP UTR inh = suppresses PrP 5' UTR mRNA reporter expression. cell-based PrP 5' UTR mRNA reporter, plate reader. inhibition, % (test concentration not listed). 0.35% of 340,000 active;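 active = every replicate at 50% or more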;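 also: 0 = median of the neutral control wells; tested in H4 reporter cells; numbers are from one replicate; inactives centre near -14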
Mtb hypoxia inh = Mtb hypoxia fluorescent reporter inhibition | M. tuberculosis hypoxia-regulated fluorescent reporter, fluorescence | fluorescence inhibition, % (concentration not given with the values) | 0.1% of 300,000 active | AID 1159583;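 active = 35 to 45% if threefold the growth effect, above 45% if 1.5-fold the growth effect; inactive = the rest, general growth blockers included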;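 also: wells of about 50 µL received 100 nL stock; 0% = vehicle wells and 100% = reference inhibitor wells; whole bacteria with a GFP reporter of the hypoxia response; strong numbers were not always called active; many hits fall short of the cut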
BJeLR viability = kills HRASV12-expressing BJeLR cells; BJeLR (HRASV12) viability, CellTiter-Glo ATP luminescence, 48 h; reference of the scale not given here; inhibition, % (no concentration beside the values); 0.17% of 300,000 active; AID 1554;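 active = replicate mean above 50%; inconclusive = above 50% but judged a plate artefact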;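 also: 50 nL library stock added to about 25 µL; numbers are from one replicate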
Mtb hypoxia inh growth = further read-out of Mtb hypoxia inh, marked with its call; growth inhibition, %; measured here: M. tuberculosis growth (absorbance);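 0% = vehicle and 100% = reference antibiotic; read after six days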
Active calls of the source: *; u = inconclusive; x = not tested or not shown. Not a hit list. Share with any hit: about 4%.

SMILES | Sa ugtP lethal | Sa RN4220 lethal | Autofluor counter | PrP UTR inh | Mtb hypoxia inh | Mtb hypoxia inh growth | BJeLR viability
Cc1ccc2nc(Cl)c(C=NNc3nc(C)cc(C)n3)c(=O)n2c1 | 4 | 0.9 | x | x | -3 | 3 | x
O=C(NCC(c1cccnc1)N1CCN(c2ccccc2)CC1)OCc1ccccc1 (configuration not stated) | 15 | 4.3 | 5066 | -21 | -5 | 2 | 3
O=C1NC(c2ccccc2)Cc2ccncc21 (configuration not stated) | 5 | 2.7 | 2938 | -7 | 9 | 10 | x
COc1ccc(CC(=O)NCc2ccccn2)cc1OC | -9 | -2.1 | 3103 | -9 | 1 | 8 | -11
O=C(COc1ccc2c3c(c(=O)oc2c1)CCCC3)N1CCN(c2ccc(F)cc2)CC1 | 18 | 3.9 | 5833 | -10 | 8 | -4 | -7
Cc1nc(=O)c(-c2ccccc2)c(C)n1-c1ccccc1 | 2 | -1.6 | 3803 | -7 | 14 | 6 | 17
C=CCC(CC=C)(C(=O)O)c1ccccc1 | -2 | 2.6 | 2715 | -5 | x | x | -7
CC1CCN(S(=O)(=O)CCNC(=O)c2ccc3c(c2)OCO3)CC1 | 3 | 2.0 | 6856 | -9 | -5 | -2 | 1
O=C(CSCc1ccc(Cl)cc1)Nc1ccc(-c2nnc(-c3ccccc3)o2)cc1 | x | x | 6715 | 2 | x | x | 7
O=C(N/N=C/c1ccc(N2CCOCC2)c([N+](=O)[O-])c1)c1ccc(F)cc1 | x | x | 9065 | -19 | x | x | -11
O=C1CCCC(=NNC(=O)c2ccc(CSc3cccc4cccnc34)cc2)C1 | -5 | -0.5 | x | x | 1 | 9 | x
CCCNC(=O)C1CCN(S(=O)(=O)c2ccc3[nH]c(=O)ccc3c2)CC1 | -3 | 0.2 | 6636 | -24 | 1 | 13 | -1
O=C(COC(=O)c1ccc(F)cc1F)NC(=O)Nc1ccc2c(c1)OCCO2 | 3 | 2.6 | 3898 | -24 | 3 | -4 | x
COc1ccc(N2C(=O)C3CCCN3C2c2ccccc2Cl)cc1 (configuration not stated) | 3 | 7.8 | 5625 | -34 | x | x | -7
Cn1c(=O)cc(N2CCOCC2)[nH]c1=O | -4 | -12 | 6318 | -15 | 2 | 8 | -2
COc1cc(-c2ccc(NC(=O)c3ccc(C)cc3)c(OC)c2)ccc1NC(=O)c1ccc(C)cc1 | -3 | -2.8 | 6564 | -22 | -1 | -10 | x
Cc1ccc(-n2c(SCC(=O)OC(C)C)nnc2-c2ccco2)cc1 | 1 | 5.1 | 2349 | -15 | 5 | 14 | 3
CCOC(=O)C1CCN(C(=O)COc2ccc(S(=O)(=O)NC(C)C)cc2)CC1 | -1 | 5.8 | 4459 | -16 | 2 | 5 | -9
COC(=O)c1c(-c2ccccc2)csc1NC(=O)c1c(-c2ccccc2)noc1C | 13 | -5.1 | 8724 | 16 | 10 | 2 | 24
COc1c(Br)cc(Br)cc1/C=N/NC(=O)c1ccncc1 | x | x | 4143 | 3 | x | x | 1
Cc1ccc(CNC(=O)CCc2nnc(Cc3ccc(-c4ccccc4)cc3)o2)o1 | 2 | 2.2 | 3392 | -3 | 5 | 6 | -1
COc1ccc(-c2nc(SCC(=O)Nc3nccs3)c(-c3ccc(Cl)cc3)[nH]2)cc1 | 8 | 40 | 6885 | -14 | 1 | 11 | 9
CCOC(=O)C1=C(N)Oc2ccc3ccccc3c2C1c1ccc(O)c(OC)c1 (configuration not stated) | 25 | -6.3 | 3555 | -28 | 12 | 9 | 3
CCOC(=O)COc1cccc2c(=O)n(CC(=O)N3CCCCC3)ccc12 | 5 | -0.9 | 4742 | 15 | 2 | -1 | -8
COc1cc(OC)cc(C(=O)N[C@H](C(=O)Nc2nc3c(s2)CCCC3)C(C)C)c1 | -11 | 4.4 | 2028 | -24 | 9 | -5 | -6
Later entries
SMILES | Sa ugtP lethal | Sa RN4220 lethal | Autofluor counter | PrP UTR inh | Mtb hypoxia inh | Mtb hypoxia inh growth | BJeLR viability
O=C1CC2c3c(cccc3CN1Cc1ccc(F)cc1)CC(O)C2O (configuration not stated) | -2 | 11 | x | x | 14 | 7 | x
CCSc1ccc2nnc(-c3ccc(F)cc3)n2n1 | -2 | 5.7 | 10484 | -9 | -3 | -2 | -16
O=C(COc1ccc(F)cc1)Nc1nnc(C2CCCCC2)s1 | x | x | 4362 | -12 | x | x | -16
Nc1c(NCc2ccccc2)c2ccccc2oc1=O | -7 | 0.7 | 11014 | -37 | 4 | -5 | -4
Cc1cccc(NS(=O)(=O)c2ccc(C)c(C(=O)NCc3cccnc3)c2)c1 | 2 | 4.8 | 3335 | -25 | 11 | 11 | x
O=C(Nc1ccc(F)c(Cl)c1)c1nsc(Cl)c1Cl | 6 | 2.7 | 4375 | -170 | 10 | 13 | 11
COc1ccc(OCC(=O)OCC(=O)N2C(C)CCCC2C)cc1 (configuration not stated) | 1 | 4.9 | 4028 | 3 | 4 | 2 | x
Cc1ccc(C2CC(c3cccs3)=NN2C(=O)c2ccco2)o1 (configuration not stated) | -4 | 8.3 | 2376 | 10 | 3 | 1 | -4
Cc1ccnc(SCC(N)=O)n1 | 4 | 4.6 | 3104 | -66 | -1 | 19 | -1
Cc1ccc(S(=O)(=O)N(CC(=O)NCc2ccncc2)C2CCCCC2)cc1 | 2 | 2.5 | 3705 | -17 | 15 | 10 | 18
O=C(NCCc1cccs1)C(c1ccccc1)c1ccccc1 | 21 | 4.8 | 3897 | -20 | 14 | 1 | 4
CCOC(=O)C1CCN(Cc2cccc(Oc3ccc(Cl)cc3)c2)CC1 | 19 | -2.4 | 3999 | -18 | 21 | 12 | -2
Cc1cccc(OCCCC(=O)NNC(=O)CCN2CCN(c3ccccc3)CC2)c1 | 11 | 0.5 | 4410 | -11 | -1 | -9 | -12
OC(c1ccccc1)(c1ccccc1)C1CCN(C(=S)Nc2ccc(F)cc2)CC1 | 7 | 1.0 | 2798 | -8 | 8 | 9 | x
Cc1[nH]n(C(N)=S)c(=O)c1N=Nc1ccc(Cl)cc1Cl | 16 | 12 | 4423 | -52 | -9 | 4 | -3
Cc1cccc(CSc2ccc(-c3cccs3)nn2)c1 | -1 | 7.2 | 8560 | -31 | 7 | 2 | -5
O=C(NCc1ccncc1)C(=O)N/N=C/c1ccccc1OCc1ccccc1 | x | x | 4292 | 18 | x | x | 0
O=C(Nc1ccccc1Cl)C1CCN(Cc2cnn(-c3ccccc3)c2-n2cccc2)CC1 | 0 | 1.2 | 4321 | -11 | 1 | 14 | -25
CCOC(=O)N1CCC(NC(=O)CC2C(=O)NCCN2Cc2cccc(F)c2F)CC1 (configuration not stated) | 2 | 1.6 | 5537 | -8 | 11 | -1 | -5
COc1ccccc1CN1CC(C(=O)NCc2cc(C)on2)CCC1=O (configuration not stated) | 4 | 0.2 | 4476 | -8 | 8 | 2 | 2
Cc1ccc(CNC(=O)CCSCc2ccccc2F)cc1 | 6 | -1.6 | 3756 | -22 | 9 | -7 | 1
CCOC(=O)/C(C#N)=N/Nc1ccccc1OC | x | x | 10789 | 21 | x | x | -10
Nc1nnc(SCC(=O)Nc2cccc(Cl)c2)s1 | 2 | 3.6 | u | -16 | 4 | 0 | x
COC(=O)Cc1cc(=O)[nH]c(N=C(N)Nc2ccccc2)n1 | -4 | 2.1 | x | x | 9 | 10 | x
COc1ccc(C(=O)NCC(=O)OCc2ccc([N+](=O)[O-])cc2)cc1 | 7 | -0.8 | 2229 | -14 | 7 | 2 | -1
Going on with the list.
SMILES | Sa ugtP lethal | Sa RN4220 lethal | Autofluor counter | PrP UTR inh | Mtb hypoxia inh | Mtb hypoxia inh growth | BJeLR viability
COc1ccc(NC(=O)CN(C)S(=O)(=O)c2ccc3c(c2)CCC(=O)N3)c(OC)c1 | 12 | 6.3 | 5401 | 24 | 1 | 10 | -2
N[C@@H](Cc1cc(I)c(O)c(I)c1)C(=O)O | x | x | 4371 | -11 | x | x | -2
COC(=O)c1ccc(Oc2ccc3nncn3n2)cc1 | -4 | 2.9 | 9967 | 7 | -2 | 1 | -1
CC(=O)Nc1ccc(S(=O)(=O)N(C)CC(=O)OCC(=O)Nc2ccc3c(c2)OCO3)cc1 | 2 | 3.5 | 2700 | -11 | 0 | 4 | -5
Cc1nc2ccccc2c(=O)n1-c1cccc(NC(=O)c2cccs2)c1 | 1 | 0.9 | u | 2 | 6 | 6 | -5
Cc1ccc(/C=C(/NC(=O)c2ccccc2)C(=O)NCCc2c[nH]c3ccccc23)o1 | -6 | -12 | 3135 | -6 | -2 | 11 | 0
Cc1cc2c(cc1S(=O)(=O)CCC(=O)NC1CCC(C)CC1)OCC(=O)N2 (configuration not stated) | 2 | 16 | 6911 | -11 | -5 | 8 | -4
Cc1c(C)n(C(=O)CSc2nccn2C)c2ccccc12 | 5 | 3.2 | 2983 | -39 | x | x | -9
CN(C(=O)CSc1nc2ccc(Cl)cc2[nH]1)C1CCS(=O)(=O)C1 (configuration not stated) | -2 | -2.6 | x | -6 | -1 | -3 | x
C/C(=N\N=C(/N)SC1CC(=O)N(c2ccc(Cl)c(Cl)c2)C1=O)c1cccs1 (configuration not stated) | x | x | 10513 | -22 | x | x | -7
O=C1c2ccccc2S(=O)(=O)N1CCS(=O)(=O)c1ccc(F)cc1 | 1 | 0.6 | 3231 | -8 | -2 | -3 | 4
O=C(Cn1[nH]c(=O)c2ccccc2c1=O)OCC(=O)N1CCCc2ccccc21 | 0 | 7.1 | 10511 | -17 | 4 | 2 | 5
CSC1=NCCN1C(=O)c1ccc(Br)o1 | -3 | 2.8 | 4729 | -10 | x | x | -2
COCCCN(C(=S)Nc1ccc(C)cc1Cl)C(C)c1ccncc1 (configuration not stated) | 4 | -1.0 | 2374 | -1 | 5 | -5 | -3
C(=N\N1CCN(C(c2ccccc2)c2ccccc2)CC1)/c1ccc2c(c1)OCO2 | x | x | 3850 | -34 | x | x | 5
CCC(=O)Nc1cc(C(C)C)c(O)cc1C | 1 | 0.4 | 4368 | -15 | 6 | 5 | -4
C/C(Cc1ccccc1)=N\NC(=O)CNC(=O)COc1ccccc1 | x | x | 6320 | -9 | x | x | -4
CC(C)CNc1c(N)c(=O)oc2ccccc12 | -3 | 1.2 | 5341 | -5 | 2 | 6 | -7
C=CCN(CC=C)CCCOc1ccccc1C(=O)OC | 15 | 4.6 | 2419 | 7 | 3 | 6 | 3
CN(CCCN1CCOCC1)C(=O)c1cc(COc2ccc(F)cc2F)on1 | 5 | 1.5 | 5817 | -9 | -1 | 6 | 5

Among those listed so far, twelve have an aryl methoxy group.
SMILES | Sa ugtP lethal | Sa RN4220 lethal | Autofluor counter | PrP UTR inh | Mtb hypoxia inh | Mtb hypoxia inh growth | BJeLR viability
COc1ccc(CC(=O)NCc2ccccn2)cc1OC | -9 | -2.1 | 3103 | -9 | 1 | 8 | -11
COc1ccc(N2C(=O)C3CCCN3C2c2ccccc2Cl)cc1 (configuration not stated) | 3 | 7.8 | 5625 | -34 | x | x | -7
COc1cc(-c2ccc(NC(=O)c3ccc(C)cc3)c(OC)c2)ccc1NC(=O)c1ccc(C)cc1 | -3 | -2.8 | 6564 | -22 | -1 | -10 | x
COc1c(Br)cc(Br)cc1/C=N/NC(=O)c1ccncc1 | x | x | 4143 | 3 | x | x | 1
COc1ccc(-c2nc(SCC(=O)Nc3nccs3)c(-c3ccc(Cl)cc3)[nH]2)cc1 | 8 | 40 | 6885 | -14 | 1 | 11 | 9
CCOC(=O)C1=C(N)Oc2ccc3ccccc3c2C1c1ccc(O)c(OC)c1 (configuration not stated) | 25 | -6.3 | 3555 | -28 | 12 | 9 | 3
COc1cc(OC)cc(C(=O)N[C@H](C(=O)Nc2nc3c(s2)CCCC3)C(C)C)c1 | -11 | 4.4 | 2028 | -24 | 9 | -5 | -6
COc1ccc(OCC(=O)OCC(=O)N2C(C)CCCC2C)cc1 (configuration not stated) | 1 | 4.9 | 4028 | 3 | 4 | 2 | x
COc1ccccc1CN1CC(C(=O)NCc2cc(C)on2)CCC1=O (configuration not stated) | 4 | 0.2 | 4476 | -8 | 8 | 2 | 2
CCOC(=O)/C(C#N)=N/Nc1ccccc1OC | x | x | 10789 | 21 | x | x | -10
COc1ccc(C(=O)NCC(=O)OCc2ccc([N+](=O)[O-])cc2)cc1 | 7 | -0.8 | 2229 | -14 | 7 | 2 | -1
COc1ccc(NC(=O)CN(C)S(=O)(=O)c2ccc3c(c2)CCC(=O)N3)c(OC)c1 | 12 | 6.3 | 5401 | 24 | 1 | 10 | -2
